Vaccinia pol inh: vaccinia E9 polymerase processive synthesis inhibitors, primary screen, biochemical, absorbance. Vaccinia virus DNA polymerase (E9) processive complex. in vitro processive DNA synthesis, absorbance read-out; active compounds read low; some inactives read as strong as hits. normalized absorbance, % (no concentration beside the values). hit rate 0.94% among 46,000. AID 493162, 2011;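 active means replicate mean up to 90% and picked by the depositor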;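 further: 100% = median of the test wells of a plate; 100 nL library stock went into each well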
An asterisk follows results filed as active; & = joins results of further samples. This is a subset, so the mix of outcomes need not match the whole.

SMILES	Vaccinia pol inh
COc1ccc(C(=O)N2CCc3cc(OC)c(OC)cc3C2c2ccccc2)cc1 (stereo not given)	98
O=C(NCCN1CCN(Cc2ccccc2)CC1)Nc1ccccc1	109
O=C(Cn1nnc(-c2ccccc2)n1)N1CCCc2ccccc21	102
Cc1ccc(-c2nn(-c3ccccc3)cc2/C=N/O)o1	100
CN1CCN(Cc2oc(CO)cc(=O)c2O)CC1	101
N#Cc1ccc(OCC(=O)N2CCN(C/C=C/c3ccccc3)CC2)cc1	100
Fc1ccc(-c2nnc3ccc(SCc4ccccc4)nn23)cc1	101
O=C(COc1ccccc1)NC(Cc1ccccc1)C(=O)O (stereo not given)	95
COc1cccc(-n2c(=O)c3c(C)c(C)sc3n(CC(=O)NCCC3=CCCCC3)c2=O)c1	93
O=C(Cn1cnc2c(oc3ccccc32)c1=O)NCc1ccccc1	103
CC(C(=O)NCc1ccccc1)C1Sc2ccccc2N(Cc2cccc(Cl)c2)C1=O (stereo not given)	99
C(=NC12CN3CN(CN(C3)C1)C2)c1cccnc1	100
COc1cc(OC)cc(-c2nc(N)c3c(C)c(-c4ccc(OC)c(OC)c4)sc3n2)c1	102
COc1ccc(/C=C2/SC(=O)N(CC(=O)NCCO)C2=O)cc1OC	100
COC(CNC(=O)c1ccc2c(c1)N(Cc1cc(C)ccc1C)C(=O)c1ccccc1S2=O)OC (stereo not given)	104
CCC(Sc1ccccn1)C(=O)Nc1cccc2ccccc12 (stereo not given)	100
O=c1oc(-c2ccccc2N=Cc2sc3ccccc3c2O)nc2ccccc12	102
C=CCOc1cccc(C2C(C(=O)c3ccc(C)o3)=C(O)C(=O)N2c2nnc(C)s2)c1 (stereo not given)	95
Cc1nnsc1C(=O)N1CCC(O)(c2ccc(Cl)cc2)CC1	105
OC(c1nc2ccccc2[nH]1)C(O)c1nc2ccccc2[nH]1 (stereo not given)	101

Pulled by compound from the list above (four):
SMILES	Vaccinia pol inh
O=C(Cn1nnc(-c2ccccc2)n1)N1CCCc2ccccc21	102
Fc1ccc(-c2nnc3ccc(SCc4ccccc4)nn23)cc1	101
COc1cc(OC)cc(-c2nc(N)c3c(C)c(-c4ccc(OC)c(OC)c4)sc3n2)c1	102
O=C(NCCN1CCN(Cc2ccccc2)CC1)Nc1ccccc1	109

(list continues)
SMILES	Vaccinia pol inh
CC1(c2ccccc2)CC(C)(C)N2C(=O)Cc3cccc1c32 (stereo not given)	97
COc1ccc(NC2=Nc3ccccc3CCC2)cc1	99
O=C(O)CCCNc1ncnc2ccc(Br)cc12	99
CCOC(=O)COc1nc(-c2ccccc2)nc2ccccc12	98
COC1(C)COC(C)(OC)CO1 (stereo not given)	104
Cc1ccc(S(=O)(=O)Nc2ccc3oc(=O)sc3c2)c(C)c1	92
CC1CC(C)CN(C(=O)CSc2ncnc3ccccc23)C1 (stereo not given)	107
CCc1nnc(NC(=O)CSc2nccn2-c2cc(C)cc(C)c2)s1	92
CNc1ccc2ccccc2c1SC	99
NC1=NC(c2cccc(Cl)c2)N(CCc2ccc(F)cc2)C(N)=N1 (stereo not given)	98
Cc1ccc(CN(C(=O)COc2c(F)c(F)c(F)c(F)c2F)C2CCS(=O)(=O)C2)o1 (stereo not given)	100
COc1ccc(C(=O)Nc2ccc(-c3cn4ccccc4n3)cc2)cc1	100
COc1cc(C)c2c(=O)c(Oc3ccccc3)c(C)oc2c1	85
CCC(=O)Nc1nc2ccc(C)cc2s1	100
COc1ccc2cc(-c3nc4ccccc4[nH]3)c(=N)oc2c1	96&94
O=C(Nc1nncs1)C1CCCCC1	89
Cc1ccc(-c2nn(-c3ccccc3)cc2/C=C/C(=O)O)o1	94
N#C/C(=C\C(=O)O)c1ccccc1	99
CC(C)N(C(=O)CSc1ccc(Cl)c(Cl)c1)C(C)C	99
COC(=O)c1ccc(COC(=O)c2cccc(C(F)(F)F)c2)cc1	108
N#Cc1nc2c(C#N)c(N)n(Cc3ccco3)c2nc1C#N	100
O=C(NCc1nnc(SCC(=O)N2CCCC2)o1)c1c(F)cccc1Cl	105
O=C(CCC(=O)N1CCN(c2ccc(F)cc2)CC1)c1ccccc1	94
Cc1ccc(Sc2c(C)nn(C(=O)CNS(=O)(=O)c3ccccc3)c2C)cc1	98
CC(=O)OC1COC(NC(=S)Oc2ccccc2)C(OC(C)=O)C1OC(C)=O (stereo not given)	101
CC1=Nc2ccccc2N=C(NC(=O)/C=C/C(=O)O)C1c1ccccc1 (stereo not given)	95
O=C(O)c1ccc2[nH]c3c(c2c1)CSCC3	89
Cn1c(=O)cc(OCC(=O)NC2CCN(Cc3ccccc3)CC2)c2ccccc21	97
COc1ccc(CNc2ccc(F)cc2C)c2ccccc12	100
Cc1csc2c(N3CCSCC3)ncnc12	98
Cc1onc(-c2c(Cl)cccc2Cl)c1NC(=O)NC1CCSC1 (stereo not given)	94
Cc1nc2cc(C(=O)NCCN3CCOCC3)ccc2n1-c1ccc(F)cc1F	102
O=C(CN1C(=O)/C(=C/c2ccccc2F)Sc2ccccc21)N1CCN(c2ccc(F)cc2)CC1	96
CSC(N)=Nc1c(Cl)cccc1Cl	104
CN(/N=C/c1cc(Cl)cc(Cl)c1O)C(=S)NC(C)(C)C	100
COc1cc(OC)cc(-c2nc3ccccc3c(=O)n2OC(=O)c2ccccc2Cl)c1	100
CC(C)(C)C(=O)COC(=O)c1ccc(Cl)cc1N	103
COc1ccc(/C=C/C(=O)NC(=O)c2ccccc2OCC(=O)c2ccc(Br)cc2)cc1	100
COc1cccc(OCC(=O)Oc2ccc(Br)cc2)c1	97
COc1ccc(-c2nc(N)sc2-c2ccccc2)cc1	99
O=C1N(c2cccc(Cl)c2)C(=Nc2cccc(Cl)c2)SC12CC2	102
NNC(=O)c1cc2ccccc2[nH]1	94
COc1ccc(C2C(C(=O)Nc3cc(C)c(Cl)cc3OC)c3ccccc3C(=O)N2C)cc1 (stereo not given)	102
Clc1ccc(NC2=NCCS2)cc1Cl	95
CC(Cc1ccccc1)[n+]1cc(/N=C(/N)[O-])on1 (stereo not given)	100
CC12CCC(c3c(C(=O)O)nn(-c4ccccc4)c31)C2(C)C (stereo not given)	99
COc1cc(CNCc2cccnc2)ccc1OCc1ccccc1	108
Cc1ccc(-c2nnco2)cc1	120
Cc1ccc2cc(CCNC(=O)Cc3ccccc3)c(=O)[nH]c2c1	104
CCC(C)OC(=O)C1CC=CCC1C(=O)Nc1cccc(Br)c1 (stereo not given)	100
O=C(CBr)C12CC3CC(CC(C3)C1)C2	104
Cc1ccc(C(O)(c2ccc(C)c(C)c2)C2CN3CCC2CC3)cc1C (stereo not given)	96
CCOC(=O)C1=C(C)NC(C)=C(C(=O)OC)C1c1cccc([N+](=O)[O-])c1 (stereo not given)	98
COc1ccc2c(c1OC)CN(C)CCc1cc3c(cc1C(O)C2)OCO3 (stereo not given)	110
OCc1nc2cc3ccccc3cc2[nH]1	101
CCOC(=O)N(c1ccc(OC)cc1)S(=O)(=O)c1ccccc1	100
O=C(CCc1ccccc1)Nc1nnc(-c2ccccc2)o1	107
CC1=Nc2ccccc2Sc2c1c(=O)n(-c1ccccc1)c1ccccc21	97
N#Cc1ccc(OC(=O)c2ccc(Br)o2)cc1	102
CN1c2ccccc2Oc2nnc(NCc3ccccc3)cc21	106

Individual results from the entries so far:
For Vaccinia pol inh, N#Cc1ccc(OC(=O)c2ccc(Br)o2)cc1 shows 102
For Vaccinia pol inh, NNC(=O)c1cc2ccccc2[nH]1 shows 94
For Vaccinia pol inh, OCc1nc2cc3ccccc3cc2[nH]1 shows 101
For Vaccinia pol inh, COc1cc(CNCc2cccnc2)ccc1OCc1ccccc1 shows 108
For Vaccinia pol inh, Clc1ccc(NC2=NCCS2)cc1Cl shows 95
For Vaccinia pol inh, O=C(CBr)C12CC3CC(CC(C3)C1)C2 shows 104
For Vaccinia pol inh, O=C(CCc1ccccc1)Nc1nnc(-c2ccccc2)o1 shows 107
For Vaccinia pol inh, COc1ccc2c(c1OC)CN(C)CCc1cc3c(cc1C(O)C2)OCO3 (stereo not given) shows 110

5 successive entries from above, quoted:
SMILES	Vaccinia pol inh
Cc1ccc(-c2nnco2)cc1	120
Cc1ccc2cc(CCNC(=O)Cc3ccccc3)c(=O)[nH]c2c1	104
CCC(C)OC(=O)C1CC=CCC1C(=O)Nc1cccc(Br)c1 (stereo not given)	100
O=C(CBr)C12CC3CC(CC(C3)C1)C2	104
Cc1ccc(C(O)(c2ccc(C)c(C)c2)C2CN3CCC2CC3)cc1C (stereo not given)	96

Next entries
SMILES	Vaccinia pol inh
NC(=O)CNC(=O)c1cccc(Cl)c1	100
Cc1ccc2c(=O)c(CN3CCCC3)c(C)[nH]c2c1C	90
Cc1ccc(S(=O)(=O)N2CCCCCC2)cc1C	100
O=C(CCCCN1CCCCC1)c1ccccc1	100
O=C(Nc1ccc2c(c1)OCCO2)Nc1cccs1	102
CCC(=O)c1c[nH]c(C(=O)NCc2ccco2)c1	80
O=C1CCCC/C1=C\Nc1nc(-c2ccccc2)cs1	99
Nc1ccncc1	101&100
COc1ccc(-n2nnc3c(SCC(=O)N4CCc5ccccc54)ncnc32)cc1	94
c1ccc2c(c1)CC(CN1CCCCC1)O2 (stereo not given)	103
CC1CCN(C(=O)c2ccc3c(=O)nc4c(-c5ccccc5)n[nH]n4c3c2)CC1	99
N#Cc1c(/N=C/c2cc(Br)ccc2O)sc2c1C1CCN2CC1	100
O=c1cc(C2CCN(C(=S)Nc3cccc(Cl)c3)CC2)[nH]n1-c1ccccc1	105
CC(C)(C)C(=O)Nc1nccs1	98
COc1ccccc1NC(=O)C1=C(C)NC(SCC(=O)c2ccccc2)=C(C#N)C1c1cccs1 (stereo not given)	90
COC(=O)C1=C(C)N(c2ccc(OC)c(OC)c2)C(=O)/C1=C\c1cc(C)n(-c2ccc(F)cc2)c1C	100
Cc1ccc(C(=O)N(C)Cc2ccccc2)cc1	100
O=C(Oc1ccc(N(C(=O)c2ccccc2)S(=O)(=O)c2cccs2)cc1)c1ccccc1	100
COc1ccc(C2C(C(=O)NCCC3=CCCCC3)c3ccccc3C(=O)N2C)cc1 (stereo not given)	94
O=c1c(-c2ccccc2)nc(-c2ccccc2)cn1O	81
CCC(=O)Nc1ccccc1-c1ccccc1NC(=O)CC	94
O=C(/C=C/c1ccc(OCc2ccccc2)cc1)N1CCOCC1	99
CN1C(C(=O)N2CCN(Cc3ccccc3)CC2)=CC(c2ccc(F)cc2)=NS1(=O)=O	101
O/N=C/c1ncc(C(F)(F)F)cc1Cl	102
CS(=O)(=O)c1ccc2nc(NC(=O)c3cccs3)sc2c1	95
CN1C(=O)/C(=C/c2cn(CC(=O)O)c3ccccc23)c2ccccc21	73*
O=c1nc2scc(CO)n2c2sc3c(c12)CCCC3	98
CC(=O)Oc1c(Cc2ccccc2)c(=O)oc2ccccc12	100
COc1ccc(C2=NOC(C(=O)N3CCCC3)C2)cc1 (stereo not given)	100
CCn1c(SCC(=O)O)nnc1-c1sc2cc(Cl)ccc2c1Cl	96
CCn1cc(CCCC(=O)NC2CCC(C)CC2)c2ccccc21 (stereo not given)	105
CCSC1=NC(C)(C)C=C(C)N1	118
Cc1nc2cc(C(F)(F)F)ccc2s1	94
CC1=NC(O)(C23CC4CC(CC(C4)C2)C3)C(C)S1 (stereo not given)	100
O=C(COc1ccc(Cl)cc1)Nc1c(F)c(F)c(F)c(F)c1F	106
Cc1sc[n+](Cc2ccccc2)c1C	100
COc1ccc(/C=C2\C(=O)c3ccccc3OC2c2ccccc2)cc1 (stereo not given)	99
CCOc1ccc2nc(N3CCCCC3)sc2c1	92
CC(=O)Nc1ccc(S(=O)(=O)N2CC(C)OC(C)C2)cc1 (stereo not given)	100
C/C=C(\C(C)=N\O)c1ccccc1	95
CC(C(=O)c1ccccc1)[n+]1cccc(Br)c1 (stereo not given)	100
CC(=O)Nc1cc(C(=O)NCCc2ccccc2)ccc1Sc1ccc(Cl)cc1	97
CC1=CC(C)(C)N(C(=O)c2ccccc2)c2ccc(OC(=O)c3ccccc3)cc21	100
Cc1cc(C)c2c(n1)sc1c(=O)n(NC(=O)Nc3ccccc3)c(C)nc12	103
O=C(c1cc2cc(Br)ccc2oc1=O)N1CCN(CCO)CC1	112
Cc1ccccc1NC(=S)N(CCCN1CCCC1)Cc1cccn1Cc1ccc(Cl)cc1	98
O=C1NC2(CCCC2)NN1C(=O)c1ccncc1	108
Clc1c2c(nn1-c1ccccc1)CCCC2	102
Oc1ccccc1C=Nc1ccc(N2CCOCC2)cc1	102
Cc1cnc(C(=O)Nc2ccc(N3CCCCC3)cc2)cn1	104
O=C(NCN1CCCCC1)C12CC3CC(CC(C3)C1)C2	101
O=C(/C=C/c1ccc2c(c1)OCO2)Nc1ccc(-n2nncc2-c2ccccc2)cc1	102
COCCn1c(SCC(=O)NCc2ccccc2Cl)nc2cc(C(=O)OC)ccc2c1=O	102
COc1ccccc1Nc1nc(-c2cc3cccc(OC)c3oc2=O)cs1	99
CC1SC(c2ccc(F)cc2)NC1=O (stereo not given)	100
O=S(Cc1cc(Sc2ccccc2)nc(-c2ccccc2)n1)c1ccccc1 (stereo not given)	91
Cc1cc2n(n1)C(/C=C\c1ccccc1)Nc1c(C)cccc1-2 (stereo not given)	88
O=C(c1ccc2ccccc2n1)n1nc2ccccc2n1	100
COc1ccc(Nc2cc(C(F)(F)F)ccc2Cl)c(C(=O)O)c1	60*
COC(=O)c1cc2cc(Br)ccc2oc1=O	100
Cc1ccc(C(O)(c2nc3ccccc3[nH]2)C(F)(F)F)c(O)c1 (stereo not given)	93
CCOC(=O)CSc1nc2cccnc2s1	83
O=C(OCC1CCCN2CCCCC12)c1ccc2c(c1)OCO2 (stereo not given)	93

Screening results: PubChem BioAssay, ICCB-Longwood Screening Facility, Harvard Medical School
